High-throughput results from PubChem.
VACV mCherry inh = inhibitors of vaccinia virus infection (mCherry reporter signal); AID 720579; Potency, µM (series often up to 36.5 µM), for inactives: at the highest dose activity change, negative = inhibition, hits mostly inhibitors; Vaccinia virus mCherry reporter infection, fluorescence; about a quarter of the inactives have no number; actives 0.63% (n = 310,000); active = well fitted inhibition curve with a large enough effect; inconclusive = small, poorly fitted or top-dose-only effect; inactive = no such curve, though single readings can be large or run the other way; tested in A549 cells; note: nearly all actives have a fitted effect of over 35% in size; inactives centre near -10
VACV Venus inh = inhibitors of vaccinia virus (Venus reporter) | Vaccinia virus Venus reporter expression, fluorescence | Potency, µM (highest dose often 36.5 µM), without a hit: at the highest dose activity change, negative = inhibition, usual class: inhibitors | actives 0.46% (n = 330,000); active means well fitted inhibition curve with a large enough effect; inconclusive means small, poorly fitted or top-dose-only effect; inactive means no such curve, though single readings can be large or run the other way; tested in A549 cells; note: nearly all actives have a fitted effect of over 30% in size; inactives centre near -10
* hit, by the source's call; i = inactive; u = inconclusive; x = not tested or not shown; [ ] = dose if it differs, or a comment. % is set by controls: 0 for no effect and ±100 for the full control effect; potency is the fitted concentration of half-maximal effect.

Results follow in this order: VACV Venus inh	VACV mCherry inh
- Cn1c(=O)n(C)c2cc(/C=N/N=C3/NC(=O)C(CC(=O)O)S3)ccc21 (configuration not stated)
 : -8%	i
- O=c1[nH]c(=S)[nH]c2c1C(c1ccc(Cl)cc1)OC(C1CCCCC1)C2 (configuration not stated)
 : -9%	-6%
- COc1ccc(C(=O)C2CCCN(C3CSCCSC3)C2)c(C)c1 (configuration not stated)
 : -16%	-7%
- COc1ccccc1C(CNc1ccc(S(=O)(=O)N2CCCC2)cc1[N+](=O)[O-])N(C)C (configuration not stated)
 : 10µM*	8.9µM*
- Cc1cc(C)cc(NC(=O)c2ccc3oc(=O)c(S(=O)(=O)c4ccc(F)cc4)cc3c2)c1
 : 2%	-10%
- CCCc1nc2ccccc2c(=O)n1-c1c(C)n(C)n(-c2ccccc2)c1=O
 : -9%	x
- CC(CNC(=O)c1cnn(-c2ccc(F)cc2)c1-n1cccc1)c1ccccc1 (configuration not stated)
 : -21%	-17%
- O=c1[nH]c(SCc2c(F)cccc2Cl)nc2c1CCCC2
 : -1%	-5%
- Cc1cc(C)cc(-n2c3nc4ccccc4nc3c3c(=O)n(Cc4ccco4)cnc32)c1
 : -15%	x
- CCn1cc(/C=N/NC(=O)c2ccc3c(c2)OCO3)c(C)n1
 : -3%	-5%

Full records, looked up by structure. Order of screens: VACV Venus inh | VACV mCherry inh
Listed for COc1ccccc1C(CNc1ccc(S(=O)(=O)N2CCCC2)cc1[N+](=O)[O-])N(C)C (configuration not stated) : 10µM* | 8.9µM*
Listed for CC(CNC(=O)c1cnn(-c2ccc(F)cc2)c1-n1cccc1)c1ccccc1 (configuration not stated) : -21% | -17%
Listed for O=c1[nH]c(=S)[nH]c2c1C(c1ccc(Cl)cc1)OC(C1CCCCC1)C2 (configuration not stated) : -9% | -6%

The results go on:
Results follow in this order: VACV Venus inh	VACV mCherry inh
- Cc1ccc(NC(=O)NC(=O)N(C2CCCCC2)S(=O)(=O)c2ccccc2)cc1
 : -8%	-11%
- COC(=O)C1=C(C(=O)OC)C2C(C)=CC(C)=CN2C(C(=O)OC)=C1C(=O)OC (configuration not stated)
 : 2%	-13%
- CCOc1ccc(CCNC(=O)CSc2nnnn2-c2ccccc2Cl)cc1OCC
 : -12%	-13%
- CCC(C(=O)NC1CCCCC1)n1c(SCc2ccccc2F)nc2ccncc21 (configuration not stated)
 : -13%[7.34 µM]	-19%[7.34 µM]
- O=C(Cc1ncc(C(F)(F)F)cc1Cl)NCc1ccco1
 : -9%	-4%
- O=C(/C=C/Nc1cccc([N+](=O)[O-])c1)c1ccco1
 : -10%	-5%
- COCCNc1nc(-c2cc3ccccc3o2)cs1
 : -18%	-23%
- CCCc1cc(=O)[nH]c2nnc(SC(C)CC)n12 (configuration not stated)
 : -18%	-8%
- CCC(=O)N1CCCC1(C)C(=O)Nc1cccc(Oc2ccccc2)c1 (configuration not stated)
 : 0%	-14%
- O=C(Cn1nc(Cl)nc1Cl)c1ccccc1
 : -7%	i
- NS(=O)(=O)c1cc2c(cc1Cl)NC(CC1CCCC1)NS2(=O)=O (configuration not stated)
 : -7%	i
- COc1cc(NC(=S)Nc2ccccn2)cc(OC)c1
 : -16%	-8%
- COc1ccc2cc(S(=O)(=O)N3CCCC3)ccc2c1
 : 0%	i
- C[C@H](CO)N1C[C@H](C)[C@@H](CN(C)C(=O)NC2CCCCC2)Oc2ccc(NC(=O)Cn3cnnn3)cc2C1=O
 : -4%	i
- Cc1ccc(Nc2nc(N)nc(CSC(=S)N3CCN(c4ccccc4)CC3)n2)cc1
 : -13%	-9%
- Cc1ccc(C(=O)NCCOc2ccc(Cl)cc2)cc1
 : -3%	-9%
- NS(=O)(=O)c1ccc(CCNC(=O)c2ccc(NS(=O)(=O)c3ccc4[nH]c(=O)[nH]c4c3)cc2)cc1
 : -8%	-8%
- CCCCC(=O)NCCc1cc2c(OC)ccc(OC)c2[nH]c1=O
 : -13%	-10%
- CC(NS(=O)(=O)c1cc2c3c(c1)CCC(=O)N3CCC2)c1ccccc1 (configuration not stated)
 : -21%	i
- CC(C)=CCc1c(O)ccc(C(=O)Cc2ccccc2)c1O
 : u	u
- CN(C)c1ccc(N=Nc2ccccc2C(=O)OCC(=O)N2CCCCCC2)cc1
 : -3%	-18%
- Fc1ccccc1Cn1c2[n+](c3ccc(C(F)(F)F)cc31)CCCCC2
 : -17%	i
- COc1ccc(NC(=O)c2cc(-c3ccc(C)cc3O)n[nH]2)c(OC)c1
 : -18%	-5%
- CCOc1ccc(S(=O)(=O)N2CCN(c3ccc(C)cc3C)CC2)cc1
 : 5%	-17%
- Cn1cc(S(=O)(=O)NC(c2ccccc2)c2ccccc2)c(=O)n(C)c1=O
 : -19%	-8%
- CC1(C)CC(=O)C=C(c2ccc(COC(=O)c3cc(F)cc(F)c3)cc2)C1=O
 : 11%	-2%
- CCOc1ccccc1CNC(=O)c1cc2cc(S(=O)(=O)N3CCCCC3)ccc2n1C
 : -13%	-12%
- COc1ccc(NC(=O)Cn2nnc(-c3ccccc3NC(=O)c3cccs3)n2)cc1
 : u	x
- CCOc1ccc(/C=C/C2=CC(C)(C)NC(=S)N2)cc1
 : u	u
- Cc1ccc2nsnc2c1NC(=O)c1cccnc1Cl
 : -7%	i
- CC1(C)OC(=O)C(=CNCC(=O)NCC(=O)O)C(=O)O1
 : 0%	-5%
- O=C(c1ccc([N+](=O)[O-])s1)N1CCN(c2ncccn2)CC1
 : u	i
- CCOc1ccc(NC(=O)N2CCN(C(=O)c3ccco3)CC2)cc1
 : 2%	-5%
- CCOC(=O)C(=O)/C(C#N)=C/Nc1ccc(Cl)cc1
 : u	x
- CC(=O)c1ccc2c(c1)N(CCCN1CCC(CCO)CC1)c1ccccc1S2
 : -13%	-24%
- O=C(COC(=O)c1ccco1)c1ccccc1
 : 3%	-1%
- CC(C)=C(NC(=O)c1ccccc1)C(=O)N/N=C/c1ccc(O)cc1
 : -9%	-11%
- O=C(CCN1C(=O)c2ccccc2C1=O)Nc1ccccc1C(F)(F)F
 : -13%	-9%
- Cn1c(SCC(=O)NCc2ccc(F)cc2)ncc(C(=O)Nc2ccccc2)c1=O
 : -10%	-13%
- COc1ccc(C(=O)Nc2ccc3c(c2)OCCO3)cc1[N+](=O)[O-]
 : -16%	-12%
- CCOC(=O)Cc1csc(NC(=S)NC(=O)C(C)(C)C)n1
 : -17%	i
- C(=C\c1nc2ccccc2nc1/C=C/c1ccc2c(c1)OCO2)/c1ccc2c(c1)OCO2
 : -10%	22%
- Oc1cccc(NC(=S)Nc2ccccc2)c1
 : -1%	i
- CCOC1OC(=O)C(Cl)=C1Nc1ccc(C)cc1 (configuration not stated)
 : -8%	1%
- CCCc1nnc(NC(=O)c2ccc(N3C(=O)C4C5C=CC(C5)C4C3=O)cc2)s1 (configuration not stated)
 : -10%	-19%
- O=C(CSc1c2c(nc3ccccc13)CCC2)Nc1ccc(F)cc1
 : -11%	-14%
- COC(=O)C1(Cc2ccccc2)NC(c2ccccc2C)C2C(=O)N(c3ccc4c(c3)OCO4)C(=O)C21 (configuration not stated)
 : -3%	-14%
- CCCCNC(=O)CCSc1nc(-c2ccc3c(c2)OCO3)cc(C(F)(F)F)n1
 : -7%	-8%
- O=C(N/C(=C/c1ccc(Cl)cc1)C(=O)N1CCCCC1)c1ccco1
 : -23%	-6%
- COc1ccc(NS(=O)(=O)c2ccc(C(=O)NCC3(N4CCOCC4)CCCCC3)cc2)cc1
 : -18%	-7%

(more compounds)
Results follow in this order: VACV Venus inh	VACV mCherry inh
- O=C(O)C1CN(c2ncccc2[N+](=O)[O-])C1
 : -2%	i
- Cc1c(C(=O)Nc2cccc(Cl)c2)cn2c(nc3ccccc32)c1C#N
 : -11%	-13%
- CCc1ccc(NC(=O)N(CCCN2CCOCC2)Cc2cccs2)cc1
 : -8%	2%
- COc1cc2c(c(OC)c1OC)C(c1ccc(O)cc1)CC(=O)O2 (configuration not stated)
 : -7%	-20%
- COc1ccc(NC(=O)N2CCCC2C(=O)NCc2cccs2)cc1 (configuration not stated)
 : 1%	-16%
- CN[C@H](C)CCC=C(C)C
 : -25%	-20%
- CN1CCN(NC(=O)c2ccc(F)cc2)CC1
 : 26%	-9%
- COCCN(Cc1cc2c(C)cc(C)cc2nc1Cl)C(=O)c1ccccc1F
 : -17%	-6%
- O=c1c(-c2ccccc2)c(O)cc(-c2ccncc2)n1-c1ccc(Cl)cc1
 : -5%	4%
- Oc1ccccc1C1=Nc2ncnn2C(c2ccc(F)cc2)C1 (configuration not stated)
 : 10%	17%
- Cc1ccc2c(c1)c1c3n2CCN(CCC(=O)O)C3CCC1 (configuration not stated)
 : -19%	-17%
- C[C@@H]1CN([C@@H](C)CO)C(=O)CCCn2nncc2CO[C@@H]1CN(C)C(=O)NC1CCCCC1
 : -7%	i
- COc1ccc(CN(CC(O)COCc2ccccc2)S(=O)(=O)c2ccccc2Br)cc1 (configuration not stated)
 : u	-29%
- O=C(Nc1ccon1)c1ccc(Br)s1
 : -10%	-13%
- Cc1nnc(SCC(=O)c2ccc([N+](=O)[O-])cc2)s1
 : -12%	-11%
- CN(CCc1ccccn1)C(=O)CCC1CCCN(C(=O)CN2CCCCCC2)C1 (configuration not stated)
 : -13%	-23%
- CC(=O)N[C@@H](CC(=O)O)C(=O)O
 : -2%	u
- Cc1ccc(S(=O)(=O)NCC2CCC(C(=O)NCc3ccccn3)CC2)cc1 (configuration not stated)
 : -13%	i
- O=C(NCc1ccccc1Cl)c1ccc(-n2cnc3cccnc32)cc1
 : 6%	-9%
- Cc1cc2cccc(C)c2nc1SCC(=O)NCC1CCCO1 (configuration not stated)
 : -12%	-3%
- CCCCC1Cc2[nH][nH]c(=O)c2C(c2ccc(Cl)cc2)O1 (configuration not stated)
 : -2%	2%
- CCCc1cc(=O)[nH]c2nnc(SCC(=O)Nc3nccs3)n12
 : -3%	-12%
- Cc1c(Br)ccc(NC(=O)c2ccccc2[N+](=O)[O-])c1C
 : -18%	-1%
- O=C(Cn1cc2c(n1)CCCCC2)Nc1ccccc1Cl
 : 2%	-12%
- O=C(O)C(SC(C(=O)O)c1ccccc1)c1ccccc1 (configuration not stated)
 : -9%	-14%
- CCOC(=O)C1CCN(C(=O)c2cccc(N3C(=O)NC4CC3(C)Oc3ccc(C)cc34)c2)CC1 (configuration not stated)
 : -11%	-21%
- COCCn1c(SCC(=O)Nc2cc(C)on2)nc2c([nH]c3ccccc32)c1=O
 : -9%	i
- CN1CCN(c2ccccc2NC(=O)c2ccc(-c3ccc(Cl)c(Cl)c3)o2)CC1
 : -7%	-14%
- COc1ccc(/C=C(\NC(=O)c2ccccc2)C(=O)NC2CCCCC2)cc1
 : -13%	-14%
- COc1ccc(C(=O)C2CCCN(Cc3ccc4c(c3)OCCO4)C2)cc1F (configuration not stated)
 : -14%	-17%
- Cc1cc(-c2ccc(C)c(S(=O)(=O)NCc3ccc(Cl)cc3)c2)on1
 : 13%	-13%
- O=C(Nc1ccc(Br)cc1)c1cccc(N2C(=O)C3C4C=CC(C4)C3C2=O)c1 (configuration not stated)
 : -16%	-26%
- CCP(=O)(c1ccccc1)C(C)(C)O (configuration not stated)
 : -9%	x
- Cc1ccc(-c2ccc(/C=C3\SC(N4CCOCC4)=NC3=O)o2)cc1
 : u	u
- COc1ncnc2c1ncn2CCCN1CCN(C(=O)C2CC2)CC1
 : -6%	-11%
- Cc1cc(N2CCN(C(=O)c3[nH]c(C(F)(F)F)nc3-c3ccccc3)CC2)c2ccccc2n1
 : -22%	u
- COc1ccc(Cc2c(-c3ccc(F)cc3)nc3c4ccccc4ccn23)c(C)c1
 : 1%	50%[activator]
- O=C(NCc1cccc(F)c1)c1cccc2c1C(=O)c1ccc(N3CCOCC3)cc1S2(=O)=O
 : -9%	i
- CCN(CC)c1cc(C)c2cc(NC(=O)/C=C/c3ccc(C)cc3)ccc2n1
 : -11%	-10%
- O=C(Nc1cccc2ncccc12)c1cc(Br)ccc1Cl
 : -1%	-21%
- O=C(CN1c2ccccc2Sc2ccccc21)N/N=C/c1ccc(Cl)cc1
 : -7%[7.34 µM]	-19%[7.34 µM]
- CC(C)CC1NC(=O)N(Cc2nc3ccccc3s2)C1=O (configuration not stated)
 : -9%	i

In the list so far, these have an aryl thioether with sulfur outside any ring:
Results follow in this order: VACV Venus inh	VACV mCherry inh
- O=c1[nH]c(SCc2c(F)cccc2Cl)nc2c1CCCC2
 : -1%	-5%
- CCOc1ccc(CCNC(=O)CSc2nnnn2-c2ccccc2Cl)cc1OCC
 : -12%	-13%
- CCC(C(=O)NC1CCCCC1)n1c(SCc2ccccc2F)nc2ccncc21 (configuration not stated)
 : -13%[7.34 µM]	-19%[7.34 µM]
- CCCc1cc(=O)[nH]c2nnc(SC(C)CC)n12 (configuration not stated)
 : -18%	-8%
- Cn1c(SCC(=O)NCc2ccc(F)cc2)ncc(C(=O)Nc2ccccc2)c1=O
 : -10%	-13%
- O=C(CSc1c2c(nc3ccccc13)CCC2)Nc1ccc(F)cc1
 : -11%	-14%
- CCCCNC(=O)CCSc1nc(-c2ccc3c(c2)OCO3)cc(C(F)(F)F)n1
 : -7%	-8%
- Cc1nnc(SCC(=O)c2ccc([N+](=O)[O-])cc2)s1
 : -12%	-11%
- Cc1cc2cccc(C)c2nc1SCC(=O)NCC1CCCO1 (configuration not stated)
 : -12%	-3%
- CCCc1cc(=O)[nH]c2nnc(SCC(=O)Nc3nccs3)n12
 : -3%	-12%
- COCCn1c(SCC(=O)Nc2cc(C)on2)nc2c([nH]c3ccccc32)c1=O
 : -9%	i
